Screening data from PubChem BioAssay.
D2 agonist: activates the human D2 dopamine receptor. P14416. DiscoveRx PathHunter D2 beta-arrestin, luminescence, 90 min; 100% = 57 uM dopamine signal. AID 624465. activation, % (no concentration beside the values). actives 0.084% (n = 360,000); in the data active = activation above about 40%; inconclusive = about 15% to 40%; inactive = below about 15%; further: compound concentration not given in the record; the text of the record calls up to 30% inactive
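DiscoveRx PathHunter D2 beta-arrestin cells (2,100/well) attached overnight, then compound-stimulated 90 min at 37 C in HBSS/10 mM HEPES/0.1% Tween-20 buffer; beta-galactosidase complementation read by luminescence after 1 h at ambient temperature. Dopamine 57 uM final (EC100) as control.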
TRPML1 agonist: agonists of human TRPML1 channel. activation, % (concentration not given with the values). TRPML1-expressing cells, Ca2+ dye fluorescence, FDSS; host cell line not named in the record; reference of the full effect not given here. actives 0.12% (n = 410,000); in the data active = activation above about 50%; inconclusive = about 30% to 50%; inactive = below about 30%; further: 0% is about no effect; the text of the record puts the active cut at 80%
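Tetracycline-induced TRPML1-DL cells are seeded and incubated overnight before loading with a no-wash Ca2+ dye and quencher. Agonist activity is taken from the 110 s fluorescence read following compound pin-transfer on an FDSS, before EC80 54-4 challenge.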
PINK1 expr mod: PINK1 expression modulation; Potency, µM (top dose mostly 76.6 µM), without a hit: top-dose activation (PINK1 increase), most hits filed as activators; actives 0.2% (n = 410,000); AID 624263; PINK1 immunofluorescence, high-content cytometry, 24 h; active = well fitted activation curve with a large enough effect; inconclusive = small, poorly fitted or top-dose-only effect; inactive = flat fitted curve, though single readings scatter; cell line not stated here;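 further: potency means the concentration at half of the fitted maximal effect; % of control where 0% means no effect; nearly all actives have a fitted effect of over 65% in size; a mitochondrial uncoupler was the plate control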
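Fluorescence from anti-PINK1 antibody, together with nuclear and cell stains, was scanned on a laser-scanning cytometer. Before staining, stable-line cells were incubated 24 hours with compounds at 5 concentrations; primary antibody 12 h at 10 degrees C.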
CtBP-E1A blk: CtBP/E1A binding inhibition; activity change, % (concentration not given with the values); AID 651724; actives 0.49% (n = 340,000); AlphaScreen GST-E1A/His-CtBP binding, 1536-well; stronger effect = lower value; control for the full effect not named in the record; in the data active means activity change below about -65%; inconclusive means about -30% to -65%; inactive means above about -30%; further: on the % scale 0 is the no-effect control and ±100 the full control effect
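Homogeneous bead-based format: GST-tagged E1A captured on glutathione donor beads, His-tagged CtBP on nickel acceptor beads; compounds precede bead addition by 2 h at 37 °C.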
D2 potentiator: human D2 receptor positive allosteric modulation. actives 0.23% (n = 360,000). DiscoveRx D2 beta-arrestin cells, luminescence, 90 min; 100% = 57 uM dopamine signal. P14416. potentiation, % (concentration not given with the values); active = potentiation of 50% or more; inconclusive = 30% to 50%; inactive = 30% or less;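 further: compound concentration not given in the record; tested on top of an EC20 dose of dopamine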
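PathHunter D2 cells, attached overnight at 37 deg C, received compound in DMSO plus dopamine at EC20 (50 nM final) for 90 min at 37 deg C. Beta-arrestin recruitment was read as luminescence after 1 h with detection reagent at ambient temperature.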
Six1-Eya2 inh: blocks human Six1 binding to Eya2 | AlphaScreen GST-Six1/His-Eya2 binding, biochemical; stronger effect = lower value; control for the full effect not named in the record | activity change, % (no concentration beside the values) | actives 0.56% (n = 360,000); in the data active = activity change below about -65%; inconclusive = about -30% to -65%; inactive = above about -30%; further: on the % scale 0 is the no-effect control and ±100 the full control effect; compound concentration not given in the record
Target sequence (O00167 whole entry, looked up): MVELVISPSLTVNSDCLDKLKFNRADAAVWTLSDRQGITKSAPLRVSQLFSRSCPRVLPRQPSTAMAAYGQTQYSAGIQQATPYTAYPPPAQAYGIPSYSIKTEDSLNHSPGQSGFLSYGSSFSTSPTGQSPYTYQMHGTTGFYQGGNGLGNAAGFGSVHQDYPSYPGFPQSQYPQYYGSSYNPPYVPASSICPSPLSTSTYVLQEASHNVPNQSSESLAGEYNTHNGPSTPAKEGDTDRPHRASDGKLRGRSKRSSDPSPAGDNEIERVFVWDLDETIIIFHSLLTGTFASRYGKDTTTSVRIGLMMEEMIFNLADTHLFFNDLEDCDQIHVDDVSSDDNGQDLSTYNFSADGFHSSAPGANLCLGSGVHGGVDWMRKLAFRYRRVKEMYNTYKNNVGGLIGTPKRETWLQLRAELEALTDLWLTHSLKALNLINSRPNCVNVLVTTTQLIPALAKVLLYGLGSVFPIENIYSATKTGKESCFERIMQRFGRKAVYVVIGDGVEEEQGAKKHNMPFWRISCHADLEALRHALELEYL
Target sequence (Q15475 whole entry, looked up): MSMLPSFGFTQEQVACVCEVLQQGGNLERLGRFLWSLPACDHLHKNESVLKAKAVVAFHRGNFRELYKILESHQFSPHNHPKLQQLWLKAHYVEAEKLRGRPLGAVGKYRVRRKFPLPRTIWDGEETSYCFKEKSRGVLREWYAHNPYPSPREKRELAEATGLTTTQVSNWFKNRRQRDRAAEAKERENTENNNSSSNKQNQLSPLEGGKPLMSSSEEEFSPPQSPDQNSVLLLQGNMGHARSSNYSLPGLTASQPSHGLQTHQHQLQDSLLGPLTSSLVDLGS
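Compounds are tested against tagged Six1 and Eya2 proteins bridged by glutathione donor and nickel acceptor beads; after a one-hour incubation at 37 °C without light, AlphaScreen emission is recorded.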
The depositor's hits bear a star; ? = inconclusive; . = no result given; [ ] = another dose, or the depositor's remark.

The opening 2 records (preview)
molecule,D2 agonist,TRPML1 agonist,PINK1 expr mod,CtBP-E1A blk,D2 potentiator,Six1-Eya2 inh
COc1ccc2[nH]cc(CCNC(=O)c3ccc([N+](=O)[O-])cc3)c2c1,11,1.3,0.0%,-5,8,-14
O=C(Nc1ccc2c(c1)OCCO2)c1cccc(S(=O)(=O)N2CCCCC2)c1,1.0,-0.2,7.7%[38.3 µM],-11,0,-10

The whole of this part, previewed entries included:
molecule,D2 agonist,TRPML1 agonist,PINK1 expr mod,CtBP-E1A blk,D2 potentiator,Six1-Eya2 inh
COc1ccc2[nH]cc(CCNC(=O)c3ccc([N+](=O)[O-])cc3)c2c1,11,1.3,0.0%,-5,8,-14
O=C(Nc1ccc2c(c1)OCCO2)c1cccc(S(=O)(=O)N2CCCCC2)c1,1.0,-0.2,7.7%[38.3 µM],-11,0,-10
O=C(NN=C1CCCCCCC1)C(=O)NC1CCCCC1,-0.6,0.3,-0.3%,12,-12,4
COc1ccc(OC)c(NC(=O)CSc2nc3ccccc3cc2Cc2ccccc2)c1,0.0,0.0,2.8%[38.3 µM],7,-12,-24
C=CCN1C(c2cccc(C(F)(F)F)c2)=CS/C1=C(\C#N)c1nnc(N2CCOCC2)n1-c1ccccc1,2.6,18,0.8%,3,-6,-13
Cc1cc(C(=O)N2CCCC(N3CCN(c4cccc(Cl)c4)CC3)C2)n(C)n1 (stereo not given),-0.5,0.4,0.5%,-27,-17,6
Cc1cccc(CN2CCN(c3ccccn3)CC2)c1,46*,-1.3,-2.9%,5,92*,2
Cc1ccccc1C(=O)NC(=S)Nc1ccc(N2CCOCC2)cc1,0.1,0.1,0.2%,-14,-9,-16
Cc1ccc(C(=O)OCC(=O)Nc2ccc(S(N)(=O)=O)cc2)c(O)c1,-3.2,0.3,1.9%,4,-9,2
CCOC(=O)C1(Cc2ccccc2)CCCN(Cc2ccccn2)C1 (stereo not given),1.2,0.4,-1.9%,9,-6,-3
CCOc1ccccc1Nc1ncccc1C(=O)N1CCCC1,3.3,-0.6,.,9,-7,2
CC(=O)Nc1cc(-c2ccc(N)cc2)cn2c(-c3cccc(C(F)(F)F)c3)cnc12,1.8,2.6,4.2%,-16,3,-14
COc1cccc(C(C(=O)NC2CCCC2)N(Cc2cccnc2)C(=O)Cc2cccs2)c1 (stereo not given),-1.1,-1.2,1.3%,19,-5,9
Fc1ccccc1N1CCN(c2nc3ccccc3n3nnnc23)CC1,-1.8,-0.5,6.7%,0,-2,2
CC(C)NC(=O)Cn1nnc(-c2ccccc2)c1COc1ccc2ccccc2c1,-4.7,-0.4,0.1%,1,-7,1
O=C(COc1cccnc1[N+](=O)[O-])NCCc1ccc(Cl)cc1Cl,3.2,0.5,3.8%,-22,3,1
CC1(Oc2cnc(Cl)c3ccccc23)CCN(Cc2ccc(OC(F)(F)F)cc2)C1 (stereo not given),8.3,-0.7,23%,8,-6,9
Cn1c(=O)c2cc(NC(=O)CCc3ccccc3)ccc2n1Cc1cccc(C(F)(F)F)c1,-1.0,-0.2,1.3%,-2,-4,-4
CC1CCN(C2CC(=O)N(c3ccccc3)C2=O)CC1 (stereo not given),1.9,-0.3,-0.7%,10,-1,2
O=C(CC[C@H]1O[C@@H](n2cnc3c(NC(=O)c4ccccc4)ncnc32)[C@H](O)[C@@H]1O)NCc1ccc2c(c1)OCO2,4.9,0.4,0.2%,-23,-6,10
CCOC(=O)CN1C(=O)N[C@@H](CCc2ccccc2)[C@H](C(C)=O)[C@H]1C,-6.8,-0.5,-0.2%,-4,-8,-21
COC(=O)Cn1c(=O)c2c(nc3n2CC(C)CN3c2ccc(C)c(C)c2)n(C)c1=O (stereo not given),-2.8,-0.2,4.7%,-5,-7,3
Cc1ccc(NC(=O)CN(C)S(=O)(=O)c2cnc[nH]2)c(C)c1,-2.4,0.5,0.7%,.,-6,16
OCC1(CCOc2ccccc2)CCN(CC2=Cc3cc(Cl)ccc3OC2)CC1,0.4,0.8,-2.8%,-20,-12,0
CC(C)CCNC(=O)C1CCCN1C(=O)NC1CCCCC1 (stereo not given),1.6,-0.2,-1.7%,-2,-8,9

Remaining list, next part
molecule,D2 agonist,TRPML1 agonist,PINK1 expr mod,CtBP-E1A blk,D2 potentiator,Six1-Eya2 inh
CN(c1ccc(Cl)cc1)S(=O)(=O)c1nnc(NC(=O)C(C)(C)C)s1,1.7,2.3,0.3%,3,1,3
O=c1cc(-c2ccccc2)nc(N2CCN(Cc3ccc4c(c3)OCO4)CC2)[nH]1,-1.0,2.0,2.4%,-3,-42,-17
O=C(COC(=O)CCc1ccccc1)NCc1ccc2c(c1)OCO2,0.4,-1.1,1.8%,15,-4,2
Nc1cccc(NC(=O)c2ccco2)c1,3.3,0.2,0.6%,1,-3,2
CCCCN(C(=O)CSc1cc(C)c2ccc(OC)cc2n1)c1c(N)n(Cc2ccccc2)c(=O)[nH]c1=O,4.4,0.9,1.4%,.,-5,-2
C=CCc1cccc(/C=N/NC(=O)C(C)Nc2cccc(C)c2)c1O (stereo not given),-4.2,0.5,16%,-16,-12,-23
O=C(C1=NN(c2ccccc2)C(=O)CC1)N1CCc2ccccc2C1,-4.2,-0.8,-0.2%,-14,-5,-4
O=C(NCc1ccccc1)C1=C[C@@H](c2coc3ccccc3c2=O)C[C@@H](OCCCCO)O1,0.4,-0.1,1.6%,-4,-3,-5
CC(=O)c1c(C)[nH]c(C(=O)OCc2ccc([N+](=O)[O-])cc2)c1C,8.7,2.6,11%,-15,3,-12
O=C(NC[C@@H]1CC[C@@H](Cc2ccc(-c3ccccc3)cc2)O1)Nc1ccc(Br)cc1,2.7,-0.4,?,5,-10,-1
Cc1cc(=O)oc2ccc(OCC(=O)O)cc12,-0.7,-0.4,.,6,-8,-3
CC(C)(C)n1nc(C2CC2)cc1NC(=O)Nc1ccc(Cl)cc1,1.9,0.3,3.4%,.,23,3
O=C(Nc1ccccc1)c1c(F)cccc1F,-1.4,0.4,5.6%[38.3 µM],11,3,4
C=CCOC(=O)/C(=C/c1ccco1)NC(=O)/C=C/c1ccccc1,-1.9,-0.6,0.5%,6,-11,-1
O=C(C1CCN(c2nnc(-n3cccc3)s2)CC1)N1CCN(c2cccc(C(F)(F)F)c2)CC1,1.8,2.4,12%,0,-7,3
CC1CCc2c(sc3nc(CN4CCOCC4)nc(Sc4ccccc4)c23)C1 (stereo not given),-2.2,-0.4,6.5%,-7,12,-2
CCN(CC)C(=O)CSc1nnc(-c2cnccn2)n1-c1ccc(C)cc1,-0.6,0.0,7.5%[38.3 µM],7,-4,5
COc1nc(-c2ccccc2)cc(C(F)(F)F)n1,-3.6,0.6,4.7%[38.3 µM],12,-8,11
Cn1ncc(Cl)c1C(=O)Nc1ccc2c(c1)CCC2,-4.0,1.8,-0.4%,7,-11,5
COc1ccc(-c2cc(C)no2)cc1S(=O)(=O)N1CCN(c2ccc([N+](=O)[O-])cc2)CC1,2.2,-0.1,-0.2%,-5,-5,-3
CCC(C)n1c(=O)c2sccc2n2c(CCCC(=O)N3CCC(C(N)=O)CC3)nnc12 (stereo not given),-1.6,0.6,-1.0%,21,-4,17
Cn1cnc2c1c(=O)[nH]c(=O)n2Cc1ccccc1,-4.2,0.3,1.7%,5,-2,-1
O=C(Nc1ccccc1)C1CC(=O)N(c2ccc3c4c(cccc24)CC3)C1 (stereo not given),0.4,0.8,21%[38.3 µM],-1,-2,-3
CCc1noc(C)c1C(=O)Nc1ccccc1C(C)(C)C,-1.9,1.9,1.2%,9,-3,3
O=C(CCCCCN1C(=O)c2cccc3cccc(c23)C1=O)NCCO,-6.6,0.3,1.1%,.,-5,-11

The listing continues.
molecule,D2 agonist,TRPML1 agonist,PINK1 expr mod,CtBP-E1A blk,D2 potentiator,Six1-Eya2 inh
O=C(CCCOc1ccc(Cl)cc1Cl)N/N=C/c1cccc([N+](=O)[O-])c1,-4.3,4.6,6.1%,6,0,-5
CC(=O)c1ccc2c(c1)OCCOCCOCCOCCOCCO2,-5.5,-0.5,1.8%,-10,-10,2
Cc1ccc(S(=O)(=O)N/N=C(\c2ccccc2)c2cccnc2)cc1,-1.7,-0.3,-3.2%,4,5,18
CN(C(=O)COC(=O)c1cccnc1Nc1ccccc1F)C1CCS(=O)(=O)C1 (stereo not given),-3.4,0.6,-0.8%,.,-8,1
Nc1ccc(N2CCCCC2)c2nonc12,-4.5,3.0,-0.3%,.,-10,1
COc1cccc(-c2cnc3c(NC(C)=O)cc(-c4ccc(S(C)(=O)=O)cc4)cn23)c1,4.3,3.8,6.6%,-13,-7,-5
Cc1ccc2oc(=O)c3cc(C(=O)NCCN4CCN(C)CC4)sc3c2c1,-2.0,0.3,0.3%,-1,-2,-2
O=C(Nc1cccnc1)c1cccs1,-2.5,0.1,2.6%[38.3 µM],4,-10,-1
CC(=O)OCCN(CCOC(C)=O)c1c(C)[nH]c(=O)[nH]c1=O,-0.6,0.3,-1.4%[38.3 µM],11,-7,2
CCCCNC(=O)c1ccc2c(SCC(=O)O)c3c(nc2c1)CCCC3,-4.7,-0.8,1.3%,7,0,-1
O=C(CSc1nc2ccc(NC(=O)C3CCCCC3)cc2s1)NCC1CCCO1 (stereo not given),2.7,0.7,-3.2%,1,-10,2
CC1=C(C(=O)OC(C)C)C(c2ccc(O)cc2)NC(=O)N1 (stereo not given),0.5,0.4,-0.8%,5,4,3
COc1ccc(C2=NOC3(CC(=O)N(c4ccc(F)cc4)C3=O)C2)cc1 (stereo not given),-4.2,-0.9,1.3%,2,-11,-3
Clc1ccc(Sc2cc(N3CCOCC3)nc(-c3ccccc3)n2)cc1,-3.6,0.0,-2.1%,-1,-7,2
O=C(CSc1nc2ccccc2o1)c1ccc2c(c1)OCCO2,0.0,1.0,2.6%,-3,-3,-18
O=C(O)c1cccc(NC(=O)c2ccccc2)c1,-15,.,2.9%,-4,-10,-3
CCOC(=O)C(=O)/C(=C\N(C)C)c1onc(-c2c(F)cccc2Cl)c1C(=O)OC,-2.1,-0.9,1.4%,4,9,0
CC(C)CCn1c(Cl)nc2c1c(=O)n(C)c(=O)n2C,-2.8,0.9,-2.9%,6,-9,-2
CCOc1ccccc1NC(=O)NC1(C(=O)N2CCOCC2)CCCCC1,-2.7,3.8,-1.9%,-4,9,2
Cc1ccc(C(=O)Nc2ccc(C(=O)O)cc2)cc1S(=O)(=O)Nc1cccc([N+](=O)[O-])c1,-5.0,-0.1,1.8%,-1,-7,-2
COc1cc(CC(=O)OCC(=O)c2c[nH]c3ccccc23)cc(OC)c1OC,1.4,1.1,7.0%,-6,1,-6
COc1ccc(C(=O)/C=C/c2cccs2)c(OC(=O)N2CCOCC2)c1,-2.5,1.7,2.3%,3,-10,1

Rewritten with two lines to a compound: part of the list above.
Results follow in this order: D2 agonist | TRPML1 agonist | PINK1 expr mod | CtBP-E1A blk | D2 potentiator | Six1-Eya2 inh
CCOC(=O)CN1C(=O)N[C@@H](CCc2ccccc2)[C@H](C(C)=O)[C@H]1C
    -6.8 | -0.5 | -0.2% | -4 | -8 | -21
CC1CCN(C2CC(=O)N(c3ccccc3)C2=O)CC1 (stereo not given)
    1.9 | -0.3 | -0.7% | 10 | -1 | 2
O=C(Nc1cccnc1)c1cccs1
    -2.5 | 0.1 | 2.6%[38.3 µM] | 4 | -10 | -1
